Screens deposited in PubChem by several laboratories.
PKD1 kinase inh: blocks activity of human protein kinase D1. PKD1 kinase fluorescence polarization assay. inhibition, %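 (about 10 µM by stock and volumes)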. 0.056% of 200,000 active;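 active = inhibition of 50% or more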;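 note: controls were vehicle for no effect and a reference inhibitor for full effect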
Target sequence (Q15139 whole entry, looked up): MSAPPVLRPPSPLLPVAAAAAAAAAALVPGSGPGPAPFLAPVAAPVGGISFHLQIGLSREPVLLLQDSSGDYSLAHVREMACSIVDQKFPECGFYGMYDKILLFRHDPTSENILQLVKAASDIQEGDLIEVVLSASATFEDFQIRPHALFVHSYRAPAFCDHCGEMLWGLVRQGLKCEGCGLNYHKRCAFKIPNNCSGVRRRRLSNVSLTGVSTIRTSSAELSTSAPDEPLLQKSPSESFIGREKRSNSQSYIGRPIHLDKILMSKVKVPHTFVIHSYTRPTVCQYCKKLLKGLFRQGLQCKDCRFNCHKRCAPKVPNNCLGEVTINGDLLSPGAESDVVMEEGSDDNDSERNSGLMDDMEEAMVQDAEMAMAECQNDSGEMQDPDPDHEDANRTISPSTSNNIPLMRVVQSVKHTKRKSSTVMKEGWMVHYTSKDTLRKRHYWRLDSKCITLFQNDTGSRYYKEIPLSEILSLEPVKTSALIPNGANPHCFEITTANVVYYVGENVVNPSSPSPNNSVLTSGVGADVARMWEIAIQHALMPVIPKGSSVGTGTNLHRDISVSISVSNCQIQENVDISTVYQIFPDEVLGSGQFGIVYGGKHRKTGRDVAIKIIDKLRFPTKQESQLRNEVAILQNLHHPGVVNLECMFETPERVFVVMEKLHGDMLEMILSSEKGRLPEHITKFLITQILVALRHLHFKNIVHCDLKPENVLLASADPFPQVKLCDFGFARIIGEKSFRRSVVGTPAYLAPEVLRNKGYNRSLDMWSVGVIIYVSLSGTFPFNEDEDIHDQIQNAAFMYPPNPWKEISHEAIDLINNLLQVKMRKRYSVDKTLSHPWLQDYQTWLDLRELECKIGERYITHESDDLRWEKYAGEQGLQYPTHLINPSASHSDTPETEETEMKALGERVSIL
GALR2 agonist: GALR2 (human) receptor agonism. O43603. GALR2-expressing cells, agonist activation read-out. activation, %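 (tested at 5 µM)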. 0.48% of 140,000 active;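 active = above mean plus 3 SD of all compounds, about 5% in these data, not always enough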;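 note: 0% = vehicle buffer wells and 100% = reference agonist at full effect; tested in CHO reporter cells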
RGS16-Gao HTS: regulators of human RGS16-Galphao interaction | binding response (% of control), % at 10 µM | 0.38% of 220,000 active | O15492+P09471 | bead-based flow cytometry RGS16-Galphao binding, fluorescence; actives lie on both sides;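 active = below 25% or above 175%, edge rows of some plates excepted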;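 note: Galphao activated by GDP with aluminum fluoride before binding; 100% = wells without compound and 0% = beads without RGS; some results beyond the cut were filed as inactive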
HSV augment: increases HSV replication in cells; HSV replication augmentation in cells, fold increase; maximum fold increase; 0.005% of 220,000 active;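 active = peak rise of 1.5-fold or more in the series; inconclusive = self-fluorescent or not available for retest; tested in PC3 cells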;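 note: first round at 10 µM; read as green reporter fluorescence; hits show the peak of a series up to 25 µM; 1 = signal of infected wells without compound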
INS promoter inh: TRM-6 insulin promoter activity inhibition; 0.9% of 130,000 active; inhibition, % at 2 µM; AID 1273; TRM-6 cells (human fetal islet line), insulin promoter-eGFP reporter, imaging; reporter expression induced with tamoxifen;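 active = inhibition above the mean plus 3 SD, with well images judged a real hit on visual review, cut at about 60% in these data, passing the limit was not always enough; inconclusive = inhibition over the cutoff but images rejected on review; inactive = inhibition not above the cutoff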
INS promoter inh cell count: second read-out of INS promoter inh, no call of its own (marks repeat the call); normalized cell count, %; measured here: cell count, toxicity; reference of the scale not given here;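 cells exposed to compound for 48 h; stained nuclei by imaging scaled within each plate; lower means fewer cells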
HSV augment primary fold: recorded beside HSV augment, whose call it bears; fold increase; compound at 10 µM; measured here: primary screen fold increase 10 uM; tested in PC3 cells;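 GFP signal in the first replicate; 1 = infected wells without compound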
Starred values were filed as active, the others as inactive; i = inactive; ? = inconclusive; nt = not tested or not shown.

SMILES	PKD1 kinase inh	GALR2 agonist	RGS16-Gao HTS	HSV augment	HSV augment primary fold	INS promoter inh	INS promoter inh cell count
O=[N+]([O-])c1ccc(C=Nc2ccc(Cl)cc2Cl)s1	10	-1.5	95	i	1	nt	nt
O=C(Nc1ccc(S(=O)(=O)NC2=NCCCCC2)cc1)c1ccccc1Cl	nt	nt	96	i	1.1	nt	nt
CCOC(=O)C1C(c2ccccc2)C(C(=O)OCC)S(=O)(=O)C(CCN(CC)CC)S1(=O)=O (configuration not stated)	-1	nt	109	i	0.95	nt	nt
COc1ccc(C)cc1-n1c(N)c(C#N)c(C#N)c1-c1ccc(OC)c(OC)c1OC	-6	-1.0	99	i	1	nt	nt
O=C(O)C1CC=CCC1C(=O)N1CCN(c2nc(-c3ccccc3)c3ccccc3n2)CC1 (configuration not stated)	-5	9.1	99	nt	nt	nt	nt
CCc1cccc(C)c1N(C(=O)Cn1c(CO)nc2ccccc21)C(C)COC (configuration not stated)	-3	0.1	99	i	0.93	0	40
COC(=O)c1ccc(S(=O)(=O)N2C3CCC2CC(NC(=O)C2CC2)C3)cc1 (configuration not stated)	3	-1.2	100	i	0.84	-9	175
Cc1cccc(NC(=S)NNC(=O)CC(C)O)c1C (configuration not stated)	-6	-3.4	100	i	0.9	0	96
COC(=O)c1scc(C)c1NC(=O)Nc1ccccc1	5	-0.7	113	i	0.91	-13	117
COc1ccc(NC(=O)c2ccc(-n3cccn3)nc2)c(OC)c1	11	-3.1	105	i	1.1	10	74
C/C(=N\NC(=S)NC1CCCCC1)c1ccc(OC(F)F)cc1OC(F)F	4	nt	67	i	0.99	nt	nt
CCOC(=O)c1ccc(NC(=S)N2CCN(CCNC3=CC(=O)CC(C)(C)C3)CC2)cc1	6	nt	100	i	0.98	-56	46
CCOc1ccc(-c2ccc(/C=C3/C(=N)N4C=CSC4=NC3=O)o2)c([N+](=O)[O-])c1	-14	-0.4	94	nt	nt	nt	nt
Cc1ccc(-c2nc3ccccc3c(=O)n2CCCn2ccnc2)cc1	6	-2.4	102	i	0.97	10	112
COc1cccc(-n2c(SCC(=O)NCc3cccs3)nc3ccccc3c2=O)c1	-5	-0.7	101	i	0.83	-100	67
CC(C)N1CC(C(=O)Nc2nc3ccccc3s2)CC1=O (configuration not stated)	-1	-0.6	96	i	1.1	75*	81*
CC(=O)N1CCC2(CC1)C/C(=N\NC(=S)Nc1ccc(C)cc1)c1cc(O)ccc1O2	0	nt	105	i	0.99	nt	nt
COc1ccc(-n2c(=O)c3c4c(sc3n3cnnc23)CC(C)CC4)cc1 (configuration not stated)	-10	-3.3	nt	i	0.71	-12	116
CN1C(=O)CC(c2cn(Cc3ccccc3)c3ccccc23)C1=O (configuration not stated)	nt	nt	99	?	nt	nt	nt
COCCn1c(-c2ccc(Cl)cc2)nc2c(c(=O)c3ccccc3n2C)c1=O	-4	-0.2	99	i	1.1	-35	71
Cc1ccc(NC(=O)CS(=O)CC(=O)NCC2CCCO2)cc1 (configuration not stated)	-12	-1.7	108	i	1	-67	119
Cn1ncc(N=Cc2ccccc2)c1C(N)=O	10	-0.8	97	i	0.94	nt	nt
O=C(COC(=O)c1c(Cl)cccc1Cl)Nc1cc(Cl)ccc1Oc1ccccc1	1	-0.8	113	i	1.1	nt	nt
O=C(CCc1ccc(S(=O)(=O)N2CCOCC2)cc1)Nc1nccs1	-4	-3.4	102	i	1	-12	150
CC(=O)N1CCN(c2ccc(NC(=O)c3ccc4c(c3)OCCO4)cc2Cl)CC1	-10	nt	80	i	0.92	nt	nt
Cc1ccc(CNC(=O)Cc2noc3ccccc23)cc1	5	nt	97	i	1.3	nt	nt
C=CCN(Cc1cccc(OC)c1OC)S(=O)(=O)N(C)C	-5	-2.0	50	i	0.8	47	68
NS(=O)(=O)c1ccc(CNC(=O)/C=C/c2ccco2)cc1	nt	nt	97	i	0.97	nt	nt
CC(C)Oc1ccc(C(CC(=O)O)n2cnnn2)cc1 (configuration not stated)	-5	nt	107	i	1	-18	84
Cc1cccc(C)c1N(Cc1ccccc1F)S(C)(=O)=O	1	nt	98	i	1.1	nt	nt
COCCNC(=S)N(Cc1cc2cc(C)ccc2n2nnnc12)C1CCCC1	-2	nt	100	i	1	nt	nt
CCCCN(C)C(=O)Cn1c(=O)oc2cc(S(=O)(=O)N3CC(C)CC(C)C3)ccc21 (configuration not stated)	nt	nt	97	i	1	nt	nt
O=C(Nc1ccccc1Cl)Nc1ccccc1Cl	nt	nt	93	i	0.94	nt	nt
O=C(CSc1ncnc2c1nnn2Cc1ccc(F)cc1)NC1CCCC1	-11	nt	110	i	0.85	nt	nt
Nc1nc(-c2ccccc2)c(-c2ccc([N+](=O)[O-])cc2)s1	2	nt	113	i	1.3	nt	nt
O=C(Nc1c(F)cc(F)cc1Br)c1cc(-c2ccco2)on1	-1	-2.9	99	i	0.98	-74	106
Cc1cccc(OCc2nnc3n2CCCCC3)c1	-6	-1.1	103	i	0.9	nt	nt
CCOc1cc(/C=N\NC(=O)CN2CCOCC2)ccc1OCc1ccc(F)cc1	-1	-0.9	93	i	1.1	-4	73
COc1ccc(S(=O)(=O)N2Cc3ccccc3CC2C(=O)N2CCOCC2)cc1OC (configuration not stated)	15	-2.0	102	i	0.99	nt	nt
CC(=O)N1C(=O)N(C(C)=O)C2C1N(C(C)=O)C(=O)N2C(C)=O (configuration not stated)	-5	-1.5	100	i	0.88	36	124
C=CCNS(=O)(=O)c1ccc(OCC(=O)OC)cc1	3	0.5	98	i	0.93	-24	54
CC(C)(C)NC(=O)c1ccccc1NC(=O)C1CCCO1 (configuration not stated)	3	nt	101	i	1	nt	nt
COc1ccc(N2CCN(C(=O)CCCn3c(=O)[nH]c4ccsc4c3=O)CC2)cc1	7	-2.1	101	i	1.1	nt	nt
Cc1ccc(S(=O)(=O)Nc2c3ccccc3nc(=O)n2-c2ccccc2)cc1	3	0.9	95	i	1	-47	69
CCOC(=O)C1CCCN(C(=O)c2ccc(Cn3c(=S)[nH]c4cc(C(=O)OC)ccc4c3=O)cc2)C1 (configuration not stated)	-5	nt	113	i	0.87	67	96
O=C(NC(=S)NCCSc1ccccc1)c1cccnc1	-6	-1.4	123	i	0.96	3	46
COc1ccc(NS(=O)(=O)c2cccc(NC(=O)c3ccc(S(=O)(=O)N4CCCCCC4)cc3)c2)cc1	-6	-0.6	99	i	0.8	-33	105
COc1ccc(C(F)(F)F)cc1N/C=C\c1nnnn1-c1ccc(C)cc1	3	-2.2	104	i	0.97	nt	nt
Cc1ccccc1SCC(=O)Nc1cc(S(=O)(=O)N2CCOCC2)ccc1N1CCOCC1	nt	nt	91	i	1.3	nt	nt
O=C(c1noc2c1CCc1ccccc1-2)N1CCOCC1	1	-2.4	97	i	1	-80	15
CCn1c(-c2ccc3ncccc3c2)n[nH]c1=S	10	-1.3	88	i	0.89	-10	125
CN(C)S(=O)(=O)N1CCN(c2ccccc2Cl)CC1	-3	-0.9	100	nt	nt	nt	nt
COc1cccc(-c2cc(=O)[nH][nH]2)c1	0	nt	97	i	1.3	nt	nt
CCC/C(=N\NC(=O)c1ccc(OC)c(OC)c1)c1ccccc1	4	nt	106	i	0.78	nt	nt
CN(CC(=O)Nc1ccc(S(=O)(=O)N2CCCC2)cc1)CC(=O)Nc1cccc(F)c1	10	nt	105	i	0.89	-220	53
CCOC(=O)C1CCN(C(=O)c2cccnc2Cl)CC1	-6	-1.5	94	i	0.95	11	107
O=C(Nc1ccc(Cl)cc1C(=O)NCC1CCCO1)c1ccc(Cl)cc1Cl (configuration not stated)	-5	-1.1	122	i	0.98	nt	nt
Cc1cc(O)c(/C=N/Nc2cccc(Cl)c2)c(=O)o1	0	2.2	104	i	0.88	nt	nt
CCc1ccc2nc(SCC(=O)NCC3CCCO3)c(C#N)cc2c1 (configuration not stated)	7	nt	108	i	0.92	17	98
CC(=O)N(Cc1cccnc1)Cc1cc2ccccc2[nH]c1=O	-10	-0.1	98	i	0.95	-16	103
(continued)
SMILES	PKD1 kinase inh	GALR2 agonist	RGS16-Gao HTS	HSV augment	HSV augment primary fold	INS promoter inh	INS promoter inh cell count
Cc1occc1C(=O)Nc1cccc([N+](=O)[O-])c1C	nt	nt	107	i	1.1	nt	nt
O=C(NCCNC1CCN(Cc2ccccc2)CC1)c1cccs1	-12	-2.4	99	nt	nt	-35	103
COc1cccc(NC(=S)NCc2ccc3c(c2)cc(C)n3C)c1	-5	nt	44	i	0.93	19	68
Cc1ccc(-c2nnc(-c3ccccc3S(=O)(=O)Cc3ccc(Cl)cc3)o2)cc1	-9	-1.9	100	i	0.81	-42	108
COC(=O)c1sccc1NC(=O)c1cccc(OC)c1	-1	-0.2	98	i	0.85	17	133
O=C(CSc1nnc(-c2ccc(Br)cc2)o1)Nc1cccc2ccccc12	0	-2.5	98	i	0.91	-62	69
COc1cccc(/C=N/NC(=O)c2cc(C34CC5CC(CC(C5)C3)C4)[nH]n2)c1	-6	-3.8	103	i	0.95	-4	82
COc1ccc([C@@H](C)NC(=O)CCc2nnc(-c3cc(C)on3)o2)cc1	-1	nt	102	i	1.1	nt	nt
COc1ccccc1NC(=S)N(c1ccccc1)C(C)C	-9	nt	190	i	1	14	57
O=C(C1=C[C@@H](c2ccccc2)C[C@@H](OCc2ccc(CO)cc2)O1)N1CCCCCCC1	5	nt	99	nt	nt	nt	nt
Cc1ccc(-n2cc(CN3CCCN(C=O)CC3)c(-c3ccc(F)cc3)n2)cc1	3	nt	116	i	0.89	nt	nt
COc1ccccc1N1CCN(C(=O)CN(C2CCCCC2)S(C)(=O)=O)CC1	-5	nt	99	i	1	nt	nt
Cc1c(O)ccc(C(=O)CN2C(=O)c3ccccc3C2=O)c1O	4	-3.4	75	i	1	-356	29
CCc1cc(=O)[nH]c(SCCC(F)=C(F)F)n1	-3	nt	99	i	0.98	nt	nt
CCOC(=O)CSc1nnc(NCC(=O)OC)c(=O)[nH]1	-3	-2.0	99	i	0.85	25	81

7 of the compounds above, as a markdown table:
| Molecule | PKD1 kinase inh | GALR2 agonist | RGS16-Gao HTS | HSV augment | HSV augment primary fold | INS promoter inh | INS promoter inh cell count |
| --- | --- | --- | --- | --- | --- | --- | --- |
| O=C(NCCNC1CCN(Cc2ccccc2)CC1)c1cccs1 | -12 | -2.4 | 99 | nt | nt | -35 | 103 |
| COc1cccc(NC(=S)NCc2ccc3c(c2)cc(C)n3C)c1 | -5 | nt | 44 | i | 0.93 | 19 | 68 |
| Cc1ccc(-c2nnc(-c3ccccc3S(=O)(=O)Cc3ccc(Cl)cc3)o2)cc1 | -9 | -1.9 | 100 | i | 0.81 | -42 | 108 |
| COC(=O)c1sccc1NC(=O)c1cccc(OC)c1 | -1 | -0.2 | 98 | i | 0.85 | 17 | 133 |
| O=C(CSc1nnc(-c2ccc(Br)cc2)o1)Nc1cccc2ccccc12 | 0 | -2.5 | 98 | i | 0.91 | -62 | 69 |
| COc1cccc(/C=N/NC(=O)c2cc(C34CC5CC(CC(C5)C3)C4)[nH]n2)c1 | -6 | -3.8 | 103 | i | 0.95 | -4 | 82 |
| COc1ccc([C@@H](C)NC(=O)CCc2nnc(-c3cc(C)on3)o2)cc1 | -1 | nt | 102 | i | 1.1 | nt | nt |

Next part
SMILES	PKD1 kinase inh	GALR2 agonist	RGS16-Gao HTS	HSV augment	HSV augment primary fold	INS promoter inh	INS promoter inh cell count
CCCC(=O)Nc1nc2ccc(S(N)(=O)=O)cc2s1	6	-1.3	101	i	0.88	nt	nt
COc1ccccc1CNC(=O)COC(=O)c1cc(-c2ccco2)nc2ccccc12	2	-0.7	84	i	1.1	14	59
CC1=C(C(=O)Nc2ccccc2)C(c2ccc(C)o2)n2c(s/c(=C/c3ccccc3)c2=O)=N1 (configuration not stated)	0	-3.8	90	i	1.1	20	165
COc1ccc(CC(=O)N/N=C/c2c(C)n(C)c3ccccc23)cc1OC	nt	nt	101	i	0.78	nt	nt
COCc1nnc(NC(=O)CCN2C(=O)c3ccccc3C2=O)s1	-1	-4.3	94	i	0.96	11	130
O=C(/C=C/c1ccc2c(c1)OCO2)NCCCN1CCOCC1	-10	-0.5	103	i	1	-10	162
COc1ccc(OC)c(Cc2nnc(CCC(=O)NCc3ccc(C)s3)o2)c1	-3	nt	95	i	0.85	20	96
COc1ccccc1NS(=O)(=O)c1cc(C(=O)N2CC(C)CC(C)C2)ccc1C (configuration not stated)	0	0.6	103	i	0.87	nt	nt
O=Cc1cn(CCC(=O)O)nc1-c1cc2ccccc2o1	-11	0.3	119	i	1	53	102
CC1=C(C)CC(C(=O)NC(C)CCc2ccccc2)C(C(=O)O)C1 (configuration not stated)	3	nt	106	i	0.96	nt	nt
Cc1cc(C(=O)COC(=O)C2CCN(C(=O)c3ccc(Cl)cc3)CC2)c(C)n1CC1CCCO1 (configuration not stated)	-4	nt	98	i	0.99	nt	nt
